NS1 inh = blocks influenza NS1 protein function. S. cerevisiae slowed by influenza A NS1, growth recovery by OD600. Potency, µM (doses to about 46.1 µM), inactives show at the highest dose activity, positive = more growth. 0.4% of 270,000 active. AID 2326; active means well fitted rising curve with a large enough effect; inconclusive means small, poorly fitted or top-dose-only effect; inactive means no such curve, though single readings can be large or run the other way; also: nearly all actives have a fitted effect of over 50% in size
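A cell-based growth assay was used: compounds that relieve NS1-induced slow growth of budding yeast raise OD600. Assay medium was yeast nitrogen base with ammonium sulphate and -URA supplement, pH 6.0, with 2% galactose.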
Cruzain noTriton = cruzain (T. cruzi) inhibition without detergent; purified cruzain, Z-FR-AMC fluorescence, no detergent; Potency, µM, for the others: max response, negative = inhibition, actives largely listed as inhibitors; 2.3% of 200,000 active; AID 1476;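 also: plate controls were enzyme without inhibitor for no effect and buffer without enzyme for full effect; nearly all actives have a fitted effect of over 40% in size; top concentration of the series not given in the record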
Target sequence (P25779 123-467 limits assumed): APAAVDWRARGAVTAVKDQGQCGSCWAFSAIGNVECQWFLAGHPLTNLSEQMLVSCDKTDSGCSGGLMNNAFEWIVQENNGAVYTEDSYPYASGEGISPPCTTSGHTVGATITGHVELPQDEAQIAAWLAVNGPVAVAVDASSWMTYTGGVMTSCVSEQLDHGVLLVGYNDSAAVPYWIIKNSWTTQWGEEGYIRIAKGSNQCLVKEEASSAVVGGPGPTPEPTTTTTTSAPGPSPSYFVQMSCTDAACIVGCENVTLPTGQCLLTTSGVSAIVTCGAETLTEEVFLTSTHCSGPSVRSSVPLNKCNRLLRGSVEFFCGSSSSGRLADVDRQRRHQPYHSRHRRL
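Purified cruzain at 1.5 nM, pre-incubated 15 min with compound at room temperature in 100 mM sodium acetate pH 5.5, 5 mM DTT, 0.00005% Triton X-100. Reaction started with 2 uM Z-FR-AMC; AMC fluorescence increase over 60 s gives rate.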
Marburg entry inh = blocks Marburg virus binding to or entry into cells | Marburg virus pseudotyped entry inhibition, cell reporter; control for the full effect not named in the record; about a third of the inactives were read at about 46 µM | Potency, µM (series often up to 37.8 µM), without a hit: at the highest dose activity change, negative = inhibition, hits mostly inhibitors | 1.8% of 300,000 active; active = well fitted inhibition curve with a large enough effect; inconclusive = small, poorly fitted or top-dose-only effect, or effect the other way; inactive = flat fitted curve, though single readings scatter; tested in HEK293 cells; about a fifth of its hits are not listed in these tables; also: % is scaled to controls: 0 for no effect and ±100 for the full control effect; luciferase read-out
StopGo reporter = FMDV 2A StopGo reporter, luciferase signal | human cells with a luciferase reporter of 2A StopGo recoding; control for the full effect not named in the record | Potency, µM (doses to about 57.9 µM), without a hit: at the top dose signal change, negative = less light | 1.2% of 410,000 active | AID 1159524; active = well fitted falling curve with a large enough effect; inconclusive = small, poorly fitted or top-dose-only effect; inactive = no such curve, though single readings can be large or run the other way; tested in HEK293T cells; also: % is scaled to controls: 0 for no effect and ±100 for the full control effect; nearly all actives have a fitted effect of over 45% in size; luciferase light after 4 h
Lassa entry inh = Lassa virus entry inhibition. Lassa virus pseudotype entry inhibition, cell reporter; control for the full effect not named in the record. Potency, µM (doses to about 37.9 µM), without a hit: at the top dose activity change, negative = inhibition, hits mostly inhibitors. 1.2% of 300,000 active. AID 540256; active means well fitted inhibition curve with a large enough effect; inconclusive means small, poorly fitted or top-dose-only effect, or effect the other way; inactive means flat fitted curve, though single readings scatter; tested in HEK293 cells; also: % is scaled to controls: 0 for no effect and ±100 for the full control effect; nearly all actives have a fitted effect of over 50% in size; luciferase read-out
RE007 growth inh = less growth of the S. pombe RE007 Vpr strain. S. pombe RE007 Vpr strain, BacTiter-Glo ATP luminescence, 24 h; control for the full effect not named in the record. Potency, µM (top dose mostly 92.2 µM), without a hit: at the top dose activity change, negative = less growth. 0.21% of 360,000 active. AID 651644; active = well fitted falling curve with a large enough effect; inconclusive = small, poorly fitted or top-dose-only effect; inactive = no such curve, though single readings can be large or run the other way;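 also: % is scaled to controls: 0 for no effect and ±100 for the full control effect; nearly all actives have a fitted effect of over 50% in size; the assay follows cell death caused by Vpr and the record does not say whether a fall means rescue or toxicity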
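Fission yeast RE007 carrying one integrated HIV-1 vpr copy, seeded at OD 0.01 in PMG+AL medium with 23 nL pinned compound. Grown 24 h at 30 degrees; viability read by BacTiter-Glo luminescence after 5 min.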
SARS PLP yeast = blocks SARS-CoV papain-like protease in a yeast assay. 0.19% of 330,000 active. Potency, µM (top dose mostly 32.9 µM), inactives show at the highest dose activity, positive = growth rescue. S. cerevisiae expressing SARS-CoV PLpro, growth rescue; control for the full effect not named in the record; active means well fitted rising curve with a large enough effect; inconclusive means small, poorly fitted or top-dose-only effect; inactive means no such curve, though single readings can be large or run the other way; also: 0% is about no effect; nearly all actives have a fitted effect of over 55% in size; growth read by luminescence after 48 h
Cruzain inh Det = blocks cruzain activity in presence of Triton detergent | P25779 | purified cruzain, Z-FR-AMC fluorescence, 0.01% Triton | Potency, µM, without a hit: max response, negative = inhibition, hits mostly inhibitors | 0.43% of 200,000 active;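 also: plate controls were neutral wells for no effect and buffer without enzyme for full effect; nearly all actives have a fitted effect of over 40% in size; top concentration of the series not given in the record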
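Z-FR-AMC hydrolysis (2 uM substrate) by cruzain (1.5 nM) monitored kinetically at ex 360/em 450 nm after 15 min room-temperature compound exposure; 0.01% Triton X-100, pH 5.5, 5 mM DTT.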
* marks the source's active call; other numbers are inactive results; ? = inconclusive; . = no result given; [ ] = dose if it differs, or a comment. Unless noted, calls follow the shape of the dose curve; as a rule, active = well fitted curve in the direction sought with a large enough effect; inconclusive = small, poorly fitted or top-dose-only effect, or another doubt; inactive = no such curve, though single readings can be large; an effect the other way counts as inactive or inconclusive. Potency is read from the fitted curve at half-maximal effect.

SMILES	NS1 inh	Cruzain noTriton	Marburg entry inh	StopGo reporter	Lassa entry inh	RE007 growth inh	SARS PLP yeast	Cruzain inh Det
CCOC(=O)COc1ccc(S(=O)(=O)N2CCN(c3ccc(F)cc3)CC2)cc1	-114%	14%	1%	-10%	0%	7%	-12%	-1.4%
Cn1nc(-c2ccc(C(=O)NC3CCCCC3)cc2)c2ccccc2c1=O	1%	.	4%[46.1 µM]	?	.	14%	-2%	.
COC(=O)CN(c1ccc(OCc2ccccc2)cc1)S(C)(=O)=O	-8%	.	0%	24%	-19%[46.1 µM]	-9%	0%	.
O=C(C1CC(c2ccc(F)cc2)=NO1)N1CCCCC1 (stereo unspecified)	-3%	?	-2%	59%[activator]	?	-16%	-37%	0.8%
O=C(Nc1ccccc1F)c1cc(S(=O)(=O)N2CCOCC2)cs1	3%	.	?	-12%	-28%	-12%	2%	.
CCOC(=O)C1=NNC(C(=O)OCC)C1c1ccccc1 (stereo unspecified)	.	.	13%	-11%	1%[46.1 µM]	15%	.	.
CC[C@H](C)[C@H](NC(=O)OCc1ccccc1)C(=O)Nc1ccc(NC(C)=O)cc1	.	.	1%[46.1 µM]	-14%	-18%[46.1 µM]	8%	3%	.
O=S(=O)(Nc1cccc(-n2cnnn2)c1)c1ccccc1	4%	.	.	36%[activator]	.	13%	-1%	.
CCc1ccc(NS(=O)(=O)c2ccc3[nH]cc(C(=O)NCCCOC(C)C)c(=O)c3c2)cc1	.	20µM*	14%[46.1 µM]	22%	?	.	.	-3.5%
COc1ccc(O)c(C(=O)CC(=O)c2ccccc2C)c1	-74%	.	?	6%	?	?	-5%	.
OC1(c2ccc(Cl)c(Cl)c2)C[n+]2ccccc2N1Cc1ccccc1 (stereo unspecified)	-1%	.	?	?	?	-18%	0%	.
CC(=O)Nc1ccc(S(=O)(=O)NC(C(=O)O)C2=CCC=CC2)cc1 (stereo unspecified)	-4%	-9%	13%	.	20%	13%	2%	2.0%
O=C(Nc1ccc2c(c1)OCO2)C1CC(c2ccccc2O)=NO1 (stereo unspecified)	3%	.	?	9%	15%[46.1 µM]	89%	20%	.
CCc1ccc(-c2cn(-c3nc(C)cc(C)n3)c(=N)o2)cc1	-18%	-11%	?	-23%	16µM*	25%	-8%	-2.8%
COc1ccc(C(=O)NCc2ccncc2)cc1OC	1%	.	?	14%	17%	5%	0%	.

2 entries drawn at random from the list so far, as already listed:
SMILES	NS1 inh	Cruzain noTriton	Marburg entry inh	StopGo reporter	Lassa entry inh	RE007 growth inh	SARS PLP yeast	Cruzain inh Det
CCOC(=O)C1=NNC(C(=O)OCC)C1c1ccccc1 (stereo unspecified)	.	.	13%	-11%	1%[46.1 µM]	15%	.	.
CCc1ccc(NS(=O)(=O)c2ccc3[nH]cc(C(=O)NCCCOC(C)C)c(=O)c3c2)cc1	.	20µM*	14%[46.1 µM]	22%	?	.	.	-3.5%

Further structures follow:
SMILES	NS1 inh	Cruzain noTriton	Marburg entry inh	StopGo reporter	Lassa entry inh	RE007 growth inh	SARS PLP yeast	Cruzain inh Det
O=C(NCC1CCCN(C(=O)c2cccc(C(F)(F)F)c2)C1)c1ccc(F)cc1 (stereo unspecified)	13%	.	.	-24%	.	7%	-6%	.
O=c1[nH]c(C2CCCN(S(=O)(=O)c3ccccc3)C2)nc2c1nnn2Cc1ccccc1 (stereo unspecified)	-4%	3%	-6%	?	?	-21%	0%	-4.8%
CCN(CC)CCCNc1oc(-c2ccc(OC)cc2)nc1C#N	.	-20%	.	14%	5%[46.1 µM]	.	.	-15%
CN(C)Cc1cc2ccccc2c2c1COC2	0%	.	?	44%[activator]	4%[46.1 µM]	37%	3%	.
CN(Cc1ccccc1)S(=O)(=O)c1ccc(NS(C)(=O)=O)cc1	-1%	-5%	?	-5%	18%	2%	?	-3.4%
Cc1ccc(CNS(=O)(=O)c2ccc(CN3C(=O)c4cccnc4C3=O)s2)o1	-11%	.	.	-11%	.	-4%	0%	.
CCOc1cccc(-c2cc(C(=O)Nc3ccon3)c3ccccc3n2)c1	0%	.	-23%[46.1 µM]	?	?	-5%	-2%	.
Fc1ccc(-c2cc(-c3nnc4n3CCCCC4)c3ccccc3n2)cc1	-9%	-2%	15%	-21%	0%	11%	4%	-1.4%
O=c1c2ccccc2ncn1-c1ccc(Cl)cc1[N+](=O)[O-]	5%	.	.	-19%	.	-13%	1%	.
Cn1ncc(C#N)c1/N=C/N1CCCCCC1	2%	8%	-1%	-25%	-16%	7%	4%	3.1%
Cc1csc(NC(=O)Cc2coc3cc(C)c(C(C)C)cc23)n1	-33%	-6%	4µM*	?	2.8µM*	?	-18%	-7.6%
CC1(C(=O)OCC(=O)Nc2ccc3ccccc3c2)CC1(Cl)Cl (stereo unspecified)	-3%	.	18%	6%	?	-2%	-15%	.
Cc1c(Cl)cccc1NC(=S)NCc1ccc(F)cc1	3%	.	?	24%	9%[46.1 µM]	-8%	13%	.
N=C1/C(=C\c2ccc(SCc3ccco3)o2)C(=O)N=C2SC=NN12	-3%	?	?	46%[activator]	29%	-25%	3%	-20%
COc1ccc(NC(=O)CSc2nc3ccccc3c(=O)n2-c2ccc3c(c2)OCO3)c(OC)c1	-1%	?	?	0%	-1%	9%	-3%	5.5%

Record cards, as listed above. Order of values: NS1 inh | Cruzain noTriton | Marburg entry inh | StopGo reporter | Lassa entry inh | RE007 growth inh | SARS PLP yeast | Cruzain inh Det
Listed for `CCN(CC)CCCNc1oc(-c2ccc(OC)cc2)nc1C#N` : . | -20% | . | 14% | 5%[46.1 µM] | . | . | -15%
Listed for `O=c1c2ccccc2ncn1-c1ccc(Cl)cc1[N+](=O)[O-]` : 5% | . | . | -19% | . | -13% | 1% | .
Listed for `Cc1c(Cl)cccc1NC(=S)NCc1ccc(F)cc1` : 3% | . | ? | 24% | 9%[46.1 µM] | -8% | 13% | .
Listed for `COC(=O)CN(c1ccc(OCc2ccccc2)cc1)S(C)(=O)=O` : -8% | . | 0% | 24% | -19%[46.1 µM] | -9% | 0% | .
Listed for `CCOc1cccc(-c2cc(C(=O)Nc3ccon3)c3ccccc3n2)c1` : 0% | . | -23%[46.1 µM] | ? | ? | -5% | -2% | .

The results go on.
SMILES	NS1 inh	Cruzain noTriton	Marburg entry inh	StopGo reporter	Lassa entry inh	RE007 growth inh	SARS PLP yeast	Cruzain inh Det
CCOC(=O)c1ccc(NC(=O)CSc2nnc(-c3ccncc3)n2-c2ccccc2)cc1	.	-4%	.	17%	21%[46.1 µM]	.	.	-0.6%
Cc1nn(-c2ccccc2)c(Cl)c1/C=N/Nc1ccc(Cl)c(C(=O)O)c1	6%	-5%	2µM*	10µM*	?	15%	5%	-10.0%
Cc1nc(NCCC(C)C)c2nnn(Cc3ccccc3)c2n1	12%	.	.	1%	.	0%	-3%	.
CC1(C)NC(=O)N(CCOc2cccc(Oc3ccccc3)c2)C1=O	-3%	?	8%	-10%	-13%	7%	-1%	-1.0%
COC(=O)c1cc(S(=O)(=O)NCCc2ccccc2)c[nH]1	-2%	.	.	40%[activator]	.	-2%	1%	.
CCCC(=O)Nc1cccc(NC(=O)c2cccc([N+](=O)[O-])c2C)c1	-1%	-6%	?	?	9%	-7%	6%	-4.8%
Cc1onc(-c2c(F)cccc2Cl)c1C(=O)Nc1c(C)n(C)n(-c2ccccc2)c1=O	12%	-12%	11%	.	-4%	-3%	4%	-0.7%
Cn1ncc(N=Cc2c(O)ccc3ccccc23)c1C(=O)Nc1cccc(Cl)c1	.	.	18µM*	-19%	?	-23%	0%	.
COc1ccc(CCN(Cc2cc3cc(C)ccc3[nH]c2=O)C(C)=O)cc1OC	-1%	.	.	1%	.	4%	0%	.
O=C(Nc1cccc(F)c1)C1CCCN(S(=O)(=O)c2ccc(-n3cnnn3)cc2)C1 (stereo unspecified)	1%	.	-20%	?	-23%	17%	0%	.
Cc1ccc(-c2cn3cc([N+](=O)[O-])ccc3n2)cc1	-7%	-5%	3.7µM*	11µM*	?	-1%	-12%	-3.2%
COc1ccc(-c2csc(NC(=O)[C@H](C)N3C(=O)C4CC=CCC4C3=O)n2)cc1OC (stereo partly specified)	.	.	?	?	?	8%	0%	.
O=S(=O)(c1ccccc1)N1CCN(Cc2ccccc2)CC1	-7%	.	.	-11%	.	3%	-3%	.
COc1ccc(/C=C/C(=O)Nc2cc(S(=O)(=O)N3CCCCC3)ccc2N2CCCCC2)cc1OC	4%	-28%	10%	2%	5%	-14%	15%	-2.5%
Cc1cc(C(F)F)nn1CC(=O)NC1C(=O)N2C(C(=O)O)=C(CSc3nnnn3C)CSC12 (stereo unspecified)	.	.	8%[46.1 µM]	22%	-5%[46.1 µM]	-2%	3%	.
O=[N+]([O-])c1cc(C(F)(F)F)ccc1NCCc1c[nH]c2ccccc12	13%	-3%	?	?	-5%	10%	-63%	-7.4%
COc1ccc(-n2c(C)cc(C(=O)CN3C(=O)NC4(CCc5ccccc54)C3=O)c2C)cc1 (stereo unspecified)	?	?	?	?	?	29%	-19%	-5.1%
Cc1nnc(N2CCC(C(=O)NCCc3ccccc3)CC2)c2nn(-c3ccccc3)c(C)c12	.	5%	.	0%	2%[46.1 µM]	.	.	-4.2%
CN(C)c1nc(C(=O)OCCO)nc(N(C)C)n1	7%	-2%	?	-6%	-2%	-6%	-4%	-1.5%
CC(=O)c1sc(NC(=O)c2ccc(Cl)cc2)nc1C	-12%	.	.	34%[activator]	.	-5%	-1%	.
CC(=O)OC1N=C(c2ccccc2)c2ccccc2NC1=O (stereo unspecified)	4%	14%	15%	-22%	30%	2%	-4%	4.0%
O=C(c1ccc(F)cc1)c1cn(Cc2ccccc2F)c2cc3c(cc2c1=O)OCCO3	.	-3%	-10%[46.1 µM]	-20%	-7%[46.1 µM]	.	.	-1.3%
O=C(Nc1ccccc1)OC1CCCCc2cccnc21 (stereo unspecified)	-1%	.	3%[46.1 µM]	-2%	16%[46.1 µM]	9%	1%	.
CCOCCCNC(=O)c1cc(Sc2cccc(Cl)c2)nc2ccccc12	.	?	.	-10%	-16%[46.1 µM]	.	.	0.1%
Cc1ccc(CN2CCN(Cc3ccc4ncccc4c3)CC2CCO)cc1 (stereo unspecified)	1%	.	-22%[46.1 µM]	?	-24%	-16%	0%	.
